Compound activity deposited in PubChem BioAssay by Broad Institute.
MITF inhib = blocks MITF activity | TRPM1 promoter luciferase, luminescence, 24 h | inhibition, % (concentration not given with the values) | hit rate 0.28% among 37,000;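 active = most replicates at 85% or more, or half of them and the mean; inconclusive = half reach 85% but not the mean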;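 also: human melanocyte line stably carrying TRPM1 promoter luciferase reporter; 0% = vehicle wells and 100% = a positive control; the first replicate is given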
Hedgehog inh = blocks Sonic Hedgehog signaling | inhibition, % (no concentration beside the values) | Shh-LIGHT2 Gli-luciferase reporter, 30 h | hit rate 2.1% among 22,000;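 active = replicate mean of 65% or more; inconclusive = mean lower but half the replicates past it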;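 also: pathway switched on by Shh-conditioned medium diluted 1 in 25 in low serum; 100 nL library stock added to about 40 µL; 0% = median of neutral wells and 100% = positive control level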
PD-1 reverse act = activators reversing PD-1 mediated T-cell inhibition; primary human CD4 T cells, PD-L1 beads, CellTiter-Glo 96 h; activation, % (no concentration beside the values); 29,000 tested, under 10 active; AID 2316;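 active = replicate mean of 50% or more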;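 also: 0% = median vehicle wells and 100% = positive control; 100 nL library stock added to about 50 µL; numbers are from one replicate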
YB-1 expression = YB-1 expression inhibition; U2OS, qRT-PCR YB-1 vs CDIP delta delta Cp, 16 h; stronger effect = higher value; zero = DMSO, each unit about twofold; delta delta Cp (YB-1 minus CDIP) (test concentration not listed); hit rate 0.37% among 30,000;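 active = delta delta Cp rounded down to an integer at or above 3, about 3 SD of DMSO wells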;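 also: higher means less YB-1 transcript or more CDIP transcript relative to DMSO; stock transfer was 100 nL into about 100 µL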
An asterisk follows results filed as active; u = inconclusive; x = not tested or not shown.

molecule	MITF inhib	Hedgehog inh	PD-1 reverse act	YB-1 expression
C[C@H]1CN([C@@H](C)CO)C(=O)Cc2cc(NC(=O)CCN3CCOCC3)ccc2O[C@H]1CN(C)C	3	-33	x	-0.091
C[C@H](CO)N1C[C@H](C)[C@H](CN(C)Cc2ccc(C(=O)O)cc2)Oc2c(NC(=O)Nc3ccc(C(F)(F)F)cc3)cccc2C1=O	9	x	x	-0.27
C[C@@H]1CN([C@H](C)CO)C(=O)Cc2cc(NC(=O)Cn3cnnn3)ccc2O[C@H]1CN(C)Cc1ccc(-c2ccccc2)cc1	2	x	x	-0.55
CNC(=O)CN(c1cc(C)ccc1C)S(C)(=O)=O	-10	x	2.0	x
Cc1ccc(S(=O)(=O)Nc2ccc3c(c2)C(=O)N([C@H](C)CO)C[C@H](C)[C@@H](CN(C)Cc2ccc(Cl)c(Cl)c2)O3)cc1	10	x	-2.7	0.23
COc1cc(C(O)CCOC2OC(CO)C(O)C(O)C2O)cc2cc(-c3ccc4c(c3)OCO4)oc12 (configuration not stated)	-25	-30	-0.3	0.2
FC(F)(F)c1ccc(-c2nnc(SCc3ccncc3)n2Cc2ccco2)cc1	16	x	-0.1	-0.78
O=C(CC1NCCNC1=O)Nc1ccc([N+](=O)[O-])cc1 (configuration not stated)	-45	x	-0.7	x
O=C(Cc1ccccc1)NC1CCN(C(=O)c2ccco2)CC1	3	-34	3.8	-0.24
C[C@@H]1CN([C@@H](C)CO)C(=O)c2cc(NS(=O)(=O)c3cn(C)cn3)ccc2O[C@@H]1CN(C)Cc1ccncc1	9	x	x	-0.33
Cc1ccc(-c2cc(C(F)F)n3ncc(C(=O)NCCN4CCOCC4)c3n2)cc1	-4	x	-6.1	x
Cc1ccc(S(=O)(=O)Nc2ccc3c(c2)C(=O)N([C@H](C)CO)C[C@H](C)[C@H](CN(C)C(=O)Nc2c(C)noc2C)O3)cc1	6	-16	-0.8	0.096
CCc1ccc(NC(=O)Cn2cnc3ccccc3c2=O)cc1	-21	x	0.7	x
C[C@H](CO)N1C[C@H](C)[C@H](CN(C)Cc2ccncc2)Oc2ccc(NC(=O)Nc3cccc4ccccc34)cc2C1=O	7	x	3.8	-0.45
Cc1ccc(S(=O)(=O)Nc2ccc3c(c2)C(=O)N([C@H](C)CO)C[C@H](C)[C@@H](CN(C)C(=O)Nc2cccc4ccccc24)O3)cc1	-8	-8	1.2	0.37
CC(C)NC(=O)N(C)C[C@H]1Oc2c(NC(=O)C3CCCCC3)cccc2C(=O)N([C@@H](C)CO)C[C@@H]1C	0	-1	-1.1	-0.24
CNC[C@H]1Oc2ccc(NS(=O)(=O)c3ccccc3)cc2CC(=O)N([C@@H](C)CO)C[C@H]1C	0	x	0.6	-0.5
COc1ccc(NC(=O)Nc2ccc3c(c2)C(=O)N([C@@H](C)CO)C[C@@H](C)[C@@H](CN(C)Cc2ccc(Oc4ccccc4)cc2)O3)cc1	6	94*	-5.3	0.13
COc1ccc(NC(=O)N(C)C[C@@H]2Oc3ccc(NC(=O)C4CC4)cc3C(=O)N([C@H](C)CO)C[C@@H]2C)cc1	4	-12	0.1	0.31
Cc1ccc(S(=O)(=O)N(C)C[C@@H]2Oc3ccc(NS(=O)(=O)c4c(C)noc4C)cc3C(=O)N([C@H](C)CO)C[C@@H]2C)cc1	-9	21	-3.8	0.17
Cc1c(C)c2c(c(C)c1O)CCC(C)(COc1ccc(CC3SC(=O)NC3=O)cc1)O2 (configuration not stated)	1	29	-0.9	-0.59
C[C@H]1CN([C@@H](C)CO)C(=O)c2cc(NC(=O)C3CC3)ccc2O[C@@H]1CN(C)C(=O)Nc1ccc(C(F)(F)F)cc1	1	-22	-0.1	-0.17
C[C@H](CO)N1C[C@H](C)[C@H](CN(C)Cc2ccc(C(=O)O)cc2)Oc2ccc(NC(=O)Nc3cccc4ccccc34)cc2C1=O	-1	-15	0.3	-7.6e-05
Cc1noc(C)c1NC(=O)N(C)C[C@H]1Oc2ccc(NS(C)(=O)=O)cc2CC(=O)N([C@@H](C)CO)C[C@H]1C	-9	u	2.1	-0.13
C[C@H](CO)N1C[C@H](C)[C@H](CN(C)C(=O)NC2CCCCC2)Oc2c(NS(=O)(=O)c3cccs3)cccc2C1=O	15	68*	-1.8	-0.14
CC(C)c1ccc(NC(=O)CN(C)S(=O)(=O)c2ccc3ccccc3c2)cc1	9	x	1.3	x
C[C@@H]1CN([C@H](C)CO)C(=O)Cc2cc(N(C)C)ccc2O[C@H]1CN(C)S(C)(=O)=O	-11	-6	x	0.23
COc1ccc(NC(=O)N(C)C[C@@H]2Oc3ccc(NC(=O)Cc4cn(C)c5ccccc45)cc3CC(=O)N([C@H](C)CO)C[C@H]2C)cc1	-2	4	x	-0.32
CC(C)NC(=O)Nc1cccc2c1O[C@H](CN(C)Cc1ccc3c(c1)OCO3)[C@@H](C)CN([C@H](C)CO)C2=O	-4	-32	-3.1	0.17
Cc1cccc(-n2c(C)nnc2SCC(=O)Nc2ccc(Br)cc2Cl)c1	-22	x	-1.4	x
COc1ccc2cc1/C=C\NC(=O)C(Cc1ccccc1)NC(=O)C1C(CCN1C(=O)C(NC(=O)C(C)N(C)C)C(C)C)O2 (configuration not stated)	5	24	1.3	-0.45
OC(CCN1CCCCC1)(c1ccccc1)C1C[C@@H]2C=C[C@H]1C2 (some centres not stated)	-26	29	x	-0.21
Cc1cccc(-n2nc([N+](=O)[O-])c(=NCc3cccnc3)n2O)c1	9	x	-1.3	x
COc1cc(CCO)ccc1O[C@@H]1O[C@H](CO)[C@@H](O)[C@H](O)[C@H]1O	-13	-10	1.1	0.76
C[C@@H]1CN([C@H](C)CO)C(=O)c2cc(NC(=O)CCN3CCOCC3)ccc2O[C@@H]1CN(C)Cc1ccccc1	0	-41	x	0.6
Cc1ccc(S(=O)(=O)N(C)CC(=O)Nc2c(F)cccc2F)cc1	5	x	0.9	x

Going on with the list.
Under each structure – MITF inhib | Hedgehog inh | PD-1 reverse act | YB-1 expression
> COc1ccc(S(=O)(=O)Nc2ccc3c(c2)CC(=O)N([C@H](C)CO)C[C@H](C)[C@H](CN(C)Cc2ccc(Cl)c(Cl)c2)O3)cc1
  -10 | x | x | 0.023
> C[C@@H]1CCCCO[C@H](CN(C)C(=O)CCC(F)(F)F)[C@@H](C)CN([C@H](C)CO)C(=O)c2cc(NC(=O)Nc3ccc4c(c3)OCO4)ccc2O1
  6 | x | x | -0.052
> COc1ccc(CCn2cnc3sc4c(c3c2=N)CCCC4)cc1OC
  8 | -45 | 0.6 | 0.077
> CCCCC/C=C\C/C=C\C/C=C\CCCCC(=O)O
  1 | 18 | 8.1 | 0.045
> CC(C)NC(=O)N(C)C[C@@H]1Oc2c(NC(=O)c3ccncc3)cccc2C(=O)N([C@@H](C)CO)C[C@@H]1C
  -5 | -53 | 0.6 | -0.03
> Cc1ccc(NC(=O)CCn2cnc3ccccc3c2=O)cc1C
  -66 | x | 1.4 | x
> O=C(CSc1nnc(-c2cccs2)n1-c1ccccc1)c1ccc(Br)cc1
  -30 | x | 0.8 | x
> Cc1c(S(=O)(=O)c2ccc(Cl)cc2)csc1C(=O)N(c1ccccc1)S(C)=O (configuration not stated)
  25 | 88* | -0.2 | 0.085
> COc1ccc(S(=O)(=O)N(C)C[C@H]2OCCCC[C@@H](C)Oc3ccc(NC(=O)Nc4ccccc4)cc3C(=O)N([C@H](C)CO)C[C@@H]2C)cc1
  -10 | x | 2.5 | -0.13
> Cc1cccc(C)c1NC(=O)CN(c1ccc(Cl)c(C(F)(F)F)c1)S(C)(=O)=O
  9 | x | -2.5 | x
> CC(NC(=O)CSc1nnc2c3ccccc3n(C)c2n1)c1ccccc1 (configuration not stated)
  -5 | x | 0.7 | x
> CCNS(=O)(=O)c1cc(-c2nnc(Nc3ccc(NC(C)=O)cc3)c3ccccc23)ccc1C
  -32 | x | 4.8 | x
> COc1ccc(NC(=O)CN(c2ccc(Br)c(C)c2)S(C)(=O)=O)cc1Cl
  10 | x | 1.2 | x
> O=C(CSc1nnc(-c2ccc(Br)cc2)o1)Nc1ccc(Cl)cc1Cl
  34 | x | -4.9 | x
> CCN1C(=O)c2cccc3c(S(=O)(=O)N4CCCC4C(=O)O)ccc1c23 (configuration not stated)
  -24 | x | 0.7 | x

Arranged by length of the SMILES (lowest first): part of the list above.
Under each structure – MITF inhib | Hedgehog inh | PD-1 reverse act | YB-1 expression
> CCc1ccc(NC(=O)Cn2cnc3ccccc3c2=O)cc1
  -21 | x | 0.7 | x
> CCNS(=O)(=O)c1cc(-c2nnc(Nc3ccc(NC(C)=O)cc3)c3ccccc23)ccc1C
  -32 | x | 4.8 | x
> C[C@H](CO)N1C[C@H](C)[C@H](CN(C)C(=O)NC2CCCCC2)Oc2c(NS(=O)(=O)c3cccs3)cccc2C1=O
  15 | 68* | -1.8 | -0.14
> COc1ccc(NC(=O)Nc2ccc3c(c2)C(=O)N([C@@H](C)CO)C[C@@H](C)[C@@H](CN(C)Cc2ccc(Oc4ccccc4)cc2)O3)cc1
  6 | 94* | -5.3 | 0.13

(listing goes on)
Under each structure – MITF inhib | Hedgehog inh | PD-1 reverse act | YB-1 expression
> CC(C)CC(C(=O)Nc1cccc([N+](=O)[O-])c1)N1C(=O)c2ccccc2C1=O (configuration not stated)
  -13 | x | 2.7 | x
> O=C(CSc1nnc(-c2ccc(Cl)cc2)n1-c1ccc(F)cc1)Nc1ccccc1F
  -14 | x | 1.5 | x
> Cc1[nH]c2ccccc2c1C(c1c(C)[nH]c2ccccc12)C(C)C
  58 | 33 | -4.9 | -0.11
> CC(Oc1ccc(C(C)(C)C)cc1)C(=O)NCc1ccccn1 (configuration not stated)
  10 | x | -4.8 | x
> C=C1C(=O)O[C@@H]2/C=C(\C)[C@H](OC(C)=O)C/C=C(/C)C[C@@H](OC(=O)/C(=C/CO)CO)C12 (some centres not stated)
  -1 | u | -8.1 | 0.95
> COc1ccc(S(=O)(=O)N(C)C[C@@H]2Oc3c(NC(=O)C4CCCCC4)cccc3C(=O)N([C@@H](C)CO)C[C@H]2C)cc1
  -5 | u | 3.1 | 0.43
> COc1ccc(NC(=O)N(C)C[C@@H]2Oc3c(NC(=O)c4ccncc4)cccc3C(=O)N([C@H](C)CO)C[C@@H]2C)cc1
  -4 | -47 | 1.3 | -0.42
> CCn1c(SCC(=O)Nc2ccc(C(C)=O)cc2)nnc1-c1cc(Br)ccc1O
  20 | x | -1.2 | x
> CCOC(=O)c1oc2ccccc2c1NC(=O)CCN1CCCCC1
  3 | x | -0.3 | -1
> Cc1c(C(=O)C2C(=O)C(=O)N(Cc3cccnc3)C2c2ccc(F)cc2)cnn1-c1ccccc1 (configuration not stated)
  0 | x | 2.7 | x
> C[C@@H]1CN([C@@H](C)CO)C(=O)c2cc(NS(=O)(=O)c3cn(C)cn3)ccc2O[C@@H]1CN(C)C(=O)NC1CCCCC1
  -16 | -21 | 1.0 | 0.17
> COc1ccc(S(=O)(=O)Nc2cccc3c2O[C@H](CN(C)C(=O)Nc2ccc(C(F)(F)F)cc2)[C@@H](C)CN([C@H](C)CO)C3=O)cc1
  2 | -35 | -0.1 | 0.53
> C[C@@H]1CN([C@@H](C)CO)C(=O)c2cccc(NC(=O)c3cnccn3)c2O[C@H]1CN(C)C(=O)Nc1ccccc1
  4 | 54 | 1.7 | -0.27
> CN(C(=O)CSc1nc(O)cc(=O)n1-c1ccccc1F)c1ccccc1
  -10 | x | 2.5 | x
> Cc1ccc(S(=O)(=O)Nc2ccc3c(c2)C(=O)N([C@@H](C)CO)C[C@H](C)[C@H](CN(C)S(=O)(=O)c2cccs2)O3)cc1
  -9 | -9 | -6.4 | 0.42
> Cc1ccc(SCCNS(=O)(=O)c2ccc3c(c2)OCCO3)cc1
  9 | x | 0.1 | x
> C[C@@H]1CN([C@H](C)CO)C(=O)Cc2cc(NC(=O)C3CCCCC3)ccc2O[C@H]1CN(C)Cc1ccc(Cl)c(Cl)c1
  7 | -23 | -0.9 | -0.29
> OCc1c[nH]c2ccccc12
  10 | 12 | x | -0.49
> O=c1ccc2cc(O)c(O)cc2o1
  -1 | -10 | -3.6 | 2.7
> O=C(CSc1ncnc2sc3c(c12)CCCC3)N1CCc2ccccc21
  2 | x | 1.7 | x
> O=C(O)c1cc(Nc2nc(N3CCOCC3)nc(N3CCOCC3)n2)ccc1Cl
  -12 | x | 2.9 | x
> COC(=O)c1scc(S(=O)(=O)C(C)(C)C)c1N
  4 | -18 | 0.4 | -0.89

Some of the compounds tested, so the mix of outcomes need not match the whole.
